# Compound activity from PubChem.
# HTT prom inh: HTT promoter inhibition. HEK293 HTT promoter firefly luciferase reporter (activity 0% = vehicle and -100% = no light), 24 h. actives 0.93% (n = 48,000). AID 1508623. Potency, µM (titrated, usually from 57.5 µM), without a hit: top-dose activity change, negative = inhibition, actives largely listed as inhibitors; active = well fitted inhibition curve with a large enough effect; inconclusive = small, poorly fitted or top-dose-only effect; inactive = no such curve, though single readings can be large or run the other way; also: nearly all actives have a fitted effect of over 50% in size
#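 Firefly luciferase readout (Dual-Glo, 10 min RT) after 24 h, 37 °C compound exposure (final up to 57.5 uM) of HEK293 reporter cells cultured 24 h beforehand; PTC124 at 50 uM final as control inhibitor; activity scaled vehicle 0%, zero RLU -100%.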
# PMP22 txn: modulators of PMP22 gene transcription in S16 Schwann cells; actives 2% (n = 43,000); Potency, µM (doses to about 57.5 µM), for the others: top-dose activity change, negative = inhibition, hits mostly inhibitors; S16 Pmp22-F2sN Schwann cells (luciferase reporters placed in the Pmp22 gene), FLuc/NLuc coincidence luminescence, 24 h; active = clear falling dose curves in both reporters; inconclusive = both reporters move, but less clearly or upward; inactive = either reporter flat; the % is the NLuc reporter signal; also: % is scaled to controls: 0 for no effect and ±100 for the full control effect; some results filed as inactive show a strong effect at the top dose
#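 Rat S16 Pmp22-F2sN cells, 500-1,000/well in phenol red-free DMEM + 10% FBS, compound-treated 24 h (37C, 5% CO2). Luminescence: FLuc read, Stop&Glo added, NLuc read.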
# * hit, by the source's call; ? = inconclusive; / = not tested or not shown; [ ] = dose if it differs, or a comment. Potency is read from the fitted curve at half-maximal effect. An unsorted share of the library; any-hit rate near 2.6%.
nr	mol	HTT prom inh	PMP22 txn
1	O=C(c1ccc2c(c1)CCN2S(=O)(=O)c1ccccc1)N1CCN(c2ccc(F)cc2)CC1	?	?
2	Cn1c2c(c(=O)n(C)c1=O)C(c1ccccc1[N+](=O)[O-])CC(=O)N2 (centres undefined)	-4.3%	7.7%
3	CN(C)c1ccc(NC(=O)CSC2=Nc3ccccc3C3=NC(CC(=O)NCc4ccccc4)C(=O)N23)cc1 (centres undefined)	-4.6%	-12.6%
4	COc1ccc(-c2noc(-c3ccc(N4CCCCC4)c([N+](=O)[O-])c3)n2)cc1	-4.8%	-0.2%
5	COc1ccc(CCC(=O)c2c(O)cc(O[C@@H]3O[C@H](CO)[C@@H](O)[C@H](O)[C@@H]3O[C@@H]3O[C@@H](C)[C@H](O)[C@@H](O)[C@@H]3O)cc2O)cc1O	?	/
6	CCSc1nc(=O)c2c(n1C)NC(=O)CC2c1ccc(O)cc1OC (centres undefined)	-6.9%	13.2%
7	Cc1cc(Cl)ccc1NS(=O)(=O)c1c(C(=O)N2CCC(C)CC2)c(C)n(C)c1C	-32.1%	-6.0%
8	O=C(Cn1c(=O)nc(-c2ccccc2)c2cc(Cl)ccc21)NCCc1ccccc1	-3.1%	3.1%
9	Cc1ccc(C)c(NC(=O)c2nn(C)c3c2CS(=O)(=O)c2ccccc2-3)c1	-12.7%	-0.4%
10	CC1CCc2onc(C(=O)N3CCN(c4cccc(Cl)c4)CC3)c2C1 (centres undefined)	?	?
11	COc1ccc(N2CC3=C(C2=O)C(c2ccc(O)c(OC)c2)NC(=O)N3C)cc1 (centres undefined)	-0.6%	-27.2%
12	COc1cc(NC(=O)c2cnn(-c3cccc(F)c3)c2C2CCNCC2)cc(OC)c1OC	0.4%	-0.7%
13	CCOC(=O)C1CCN(c2cc(C)nc3c(-c4ccccc4OC)c(C)nn23)CC1	?	-7.8%
14	COc1cccc2c1CCCC2CCCN1CCN(C2CCCCC2)CC1 (centres undefined)	-4.0%	/
15	O=C(NCc1ccc(Cl)cc1)c1cnc2sc(N3CCCCCC3)nn2c1=O	5.5%	-15.5%
16	Cc1sc2c(c1C)c(=O)n(CCc1ccccc1)c(=O)n2Cc1ccc(F)cc1	-14.9%	-7.2%
17	O=C1CCCc2cc(S(=O)(=O)N3CCCC(C(=O)NCc4ccccc4Cl)C3)ccc2N1 (centres undefined)	?	?
18	Cc1nc2c3cccnc3nn2c(C)c1CCC(=O)NCc1ccccc1Cl	-15.2%	-13.0%
19	COc1ccccc1Cn1cc(C(=O)c2ccc(Cl)cc2)c(=O)c2cc3c(cc21)OCCO3	-6.2%	?
20	Cc1c(Cl)cccc1NC(=O)C(C)n1nc(C)c2c(C)n(-c3ccccc3)nc2c1=O (centres undefined)	-26.3%	-6.0%

# Among those listed so far, 2 have a nitro group on carbon.
nr	mol	HTT prom inh	PMP22 txn
2	Cn1c2c(c(=O)n(C)c1=O)C(c1ccccc1[N+](=O)[O-])CC(=O)N2 (centres undefined)	-4.3%	7.7%
4	COc1ccc(-c2noc(-c3ccc(N4CCCCC4)c([N+](=O)[O-])c3)n2)cc1	-4.8%	-0.2%

# Remaining list, next part.
nr	mol	HTT prom inh	PMP22 txn
21	COc1ccc(CNC(=O)c2ccc(-c3nc(CSc4ccc(C)cc4)c(C)o3)cc2)c(OC)c1	-19.1%	-4.4%
22	Cc1ccc(CNC(=O)C2CCCN(c3nnc(-n4c(C)ccc4C)s3)C2)cc1 (centres undefined)	-17.1%	?
23	CO[C@H]1/C=C\O[C@@]2(C)Oc3c(C)c(O)c4c(O)c(c(C=NN5CCN(C6CCCC6)CC5)c(O)c4c3C2=O)NC(=O)C(C)=CC=C[C@H](C)[C@H](O)[C@@H](C)[C@@H](O)[C@@H](C)[C@H](OC(C)=O)[C@H]1C	?	/
24	CC1=C(C(=O)Nc2ccccc2)C(c2ccccc2C)n2ncc(C(=O)Nc3ccccc3)c2N1 (centres undefined)	-17.0%	?
25	COc1cccc(-n2c(-c3ccco3)nc3c(cnn3-c3ccc(C)cc3)c2=O)c1	?	?
26	Cc1cccc(N2CCN(C(=O)c3nn(C)c4c3CS(=O)(=O)c3ccccc3-4)CC2)c1C	?	-27.3%
27	COc1cc(CN(C(=O)Nc2cccc(Cl)c2)c2ccccn2)cc(OC)c1OC	-2.2%	?
28	Cc1cccc(NC(=O)Cn2c(=O)n(Cc3ccc4c(c3)OCO4)c(=O)c3ccccc32)c1	-17.0%	-18.3%
29	CCCCN(C)C(=O)Cn1c(C2CC(=O)N(c3ccc(C)cc3)C2)nc2ccccc21 (centres undefined)	-7.7%	31.4%
30	Cc1ccc(C)c(N2CCN(S(=O)(=O)c3ccc(-c4coc(C)n4)cc3)CC2)c1	-28.9%	?
31	CC1=C(C(=O)Nc2ccccc2)C(c2ccccc2C)n2nc(SCC(=O)c3ccc(C)cc3)nc2N1 (centres undefined)	11.0%	2.9%
32	COc1ccc(-c2nc(S(=O)(=O)c3ccc(C)cc3)c(NCc3ccccc3)o2)cc1	-17.4%	?
33	COc1ccc(NCc2cccn2-c2nnc(N3CCCCCC3)s2)cc1	?	-19.0%
34	COc1ccccc1C(=O)Nc1cccc(OCc2cc(=O)n3c(C)csc3n2)c1	-20.8%	?
35	CCS(=O)(=O)c1c(Nc2ccc(F)c(Cl)c2)sc(C(=O)c2ccccc2)c1N	?	?
36	COc1ccc(CNC(=O)Cn2nc(C)c3nn(-c4ccc(Cl)cc4)c(C)c3c2=O)cc1	-5.9%	3.1%
37	O=C(CSc1nc(-c2ccccc2)no1)N1CCN(c2ccccc2F)CC1	8.0%	-19.0%
38	CCOC(=O)c1ccc(N2C(=O)c3[nH]nc(-c4ccc(OCC)cc4)c3C2c2cccs2)cc1 (centres undefined)	?	?
39	O=C(Nc1ccc(Cl)cc1C(F)(F)F)c1cc(S(=O)(=O)NCc2ccccc2)ccc1F	?	6.2%
40	Cc1nc(CC(=O)Nc2ccc(C)c(C)c2)cs1	19.7%	3.0%
41	COc1ccc(CCNC(=O)Cn2cc(C(=O)c3ccc(Cl)cc3)c(=O)c3ccc(C)nc32)cc1OC	7.5%	-31.8%
42	COc1ccc(-c2cc(C(=O)Nc3c(C(=O)c4ccc(C)c(F)c4)oc4ccccc34)no2)cc1	20.0%	-21.7%
43	O=C(OC1C[C@H]2CC[C@@H](C1)[N+]21CCCC1)C(O)(c1ccccc1)c1ccccc1 (some centres undefined)	38.6%[activator]	/
44	CCN1CCN(C(=O)c2ccc3c(c2)N(Cc2ccccc2)C(=O)c2ccccc2S3=O)CC1 (centres undefined)	-14.1%	-25.4%
45	CC(C)[C@H](O)C(=O)N[C@@H](C)C(=O)N[C@@H]1C(=O)N(C)CCc2ccccc21	-12.9%	/
46	COc1ccc(OC)c(NC(=O)CN(C)S(=O)(=O)c2ccc3[nH]c4c(c3c2)CCCC4)c1	-16.1%	?
47	O=C(Nc1ccccc1Cl)c1cc2c(-c3ccccc3)nn(-c3ccccc3)c2s1	9.0%	-3.6%
48	N#Cc1ccccc1S(=O)(=O)N1CCC(Oc2ccc(-n3cnnn3)cc2)CC1	?	-18.8%
49	COc1ccccc1CNC(=O)c1ccc2c(c1)sc1nc(-c3ccc(F)cc3)cn12	?	-16.7%
50	COc1ccc(C)cc1NC(=O)c1nnn(Cc2cccc(Br)c2)c1N	?	-18.9%
51	NS(=O)(=O)c1ccc(NC(=O)CSc2ccc3ccccc3n2)cc1	-23.2%	?
52	COc1ccc(N(CC(=O)NCCc2ccccc2)S(=O)(=O)c2ccc(OC)c(OC)c2)cc1	-17.0%[11.5 µM]	-6.2%
53	COC(=O)CCN(c1ccccc1)S(=O)(=O)c1cc(-c2cc(C)no2)ccc1OC	5.7%	7.2%
54	COc1ccc(S(=O)(=O)n2nc(C)c(S(=O)(=O)N3CCCCC3)c2C)cc1	-12.9%	21.4%
55	Cc1ccc(-c2ccc(=O)n(C(C)C(=O)Nc3ccccc3Cl)n2)cc1C (centres undefined)	?	-8.3%
56	COc1ccccc1CCNC(=O)C(=O)NCC(c1ccco1)S(=O)(=O)c1cccs1 (centres undefined)	-22.0%	-5.2%
57	COCCCNC(=O)CN1C(=O)COc2ccc(S(=O)(=O)N3CCCC3)cc21	-7.7%	3.4%
58	COc1ccc(Nc2cc(C(=O)NCCCN(C)c3ccccc3)c3ccccc3n2)c(OC)c1	-3.4%	?
59	CCc1cccc(NC(c2nnc(-c3ccccc3)o2)c2ccc(F)cc2Cl)c1 (centres undefined)	-35.6%	-6.6%
60	COc1ccc(CNC(=O)c2cnc(N3CCCC3)nc2C)c(OC)c1	-16.1%	-2.1%

# Shown as labelled records: entries from further up
2	Cn1c2c(c(=O)n(C)c1=O)C(c1ccccc1[N+](=O)[O-])CC(=O)N2 (centres undefined)
  HTT prom inh: -4.3%
  PMP22 txn: 7.7%
3	CN(C)c1ccc(NC(=O)CSC2=Nc3ccccc3C3=NC(CC(=O)NCc4ccccc4)C(=O)N23)cc1 (centres undefined)
  HTT prom inh: -4.6%
  PMP22 txn: -12.6%

# (more compounds)
nr	mol	HTT prom inh	PMP22 txn
61	COc1ccccc1CNC(=O)CS(=O)(=O)c1cccc2nsnc12	-9.5%	2.4%
62	CCCCCCOc1ccc(-c2nc3ccc(Br)cc3c(=O)o2)cc1	0.5%	29.9%
63	COc1ccc(-n2c(CCC(=O)O)ccc2-c2ccccc2)c(OC)c1	2.8%	-7.5%
64	Cc1cccc(OC(C)C(=O)Nc2nonc2-c2ccc(Br)cc2)c1C (centres undefined)	?	-6.4%
65	CCNc1nc(NC(C)(C)C)nc(Oc2ccc(=O)n(-c3ccccc3)n2)n1	?	?
66	CCOc1ccc(Nc2ncnc3c2cnn3-c2ccc(F)cc2)cc1	8.7%	-2.2%
67	Cc1ccc(NC(=O)C2CCN(C(=O)c3cnn(-c4ccccc4)c3-n3cccc3)CC2)cc1C	?	-34.3%
68	COc1ccc(Cl)cc1NC(=O)CN(c1cccc(C)c1C)S(C)(=O)=O	-18.2%	?
69	COc1cc(OC)c(NS(=O)(=O)c2c(C)nc3sc(C)cn3c2=O)cc1Cl	?	?
70	CCc1ccc(NCc2cc3cc4c(cc3n(CC(=O)Nc3ccc(Cl)cc3)c2=O)OCO4)cc1	-15.5%	?
71	O=C(CSc1oc(-c2ccc(F)cc2)nc1S(=O)(=O)c1ccc(Br)cc1)NC1CCCCC1	-13.2%	0.4%
72	CCOCCCNC(=O)Cn1ncc2c([nH]c3ccc(C)cc32)c1=O	3.1%	-15.6%
73	COc1ccc(NC(=O)CSc2nc3c(oc4ccccc43)c(=O)n2-c2ccc(C)c(C)c2)cc1	-18.4%	-4.3%
74	Cc1ccc(-c2nc3c(c(SCc4ccc(Br)cc4)n2)Cc2c(CO)cnc(C)c2O3)cc1	23.9%	7.1%
75	Cn1c(=O)n(C/C=C/c2ccccc2)c(=O)c2c1nc1n2CCN1c1ccccc1	-2.9%	-3.2%
76	CCOC(=O)c1ccc(NC(=O)Cc2coc3cc(C)cc(C)c23)cc1	-9.3%	10.1%
77	O=C(CCCn1c(=O)c2cccn2c2ccccc21)NCCc1ccc(Cl)cc1	-12.4%	?
78	CC(=O)c1ccc(C(=O)N(CCCN(C)C)c2nc3c(C)c(C)ccc3s2)cc1	-19.7%	?
79	Cc1ccc(C(=O)Nc2cccc(O)c2)cc1S(=O)(=O)N1CCCCCC1	-20.3%	?
80	CCCOc1cccc(C2c3c(oc4ccc(F)cc4c3=O)C(=O)N2c2nc(C)c(C(C)=O)s2)c1 (centres undefined)	-19.2%	-11.4%
81	Cc1ccc(C(=O)Nc2cccc(C(=O)O)c2)cc1S(=O)(=O)N1CCCC1	22.9%	3.3%
82	COc1ccc(C)cc1NC(=O)CSc1nc(=O)n(Cc2cccnc2)c2c1CCC2	0.0%	-17.7%
83	CC(C)c1noc(-c2ccccc2OCC(=O)Nc2ccc([N+](=O)[O-])cc2)n1	-8.2%	-11.6%
84	COc1ccc(NC(=O)c2cccn2-c2nnc(N3CCCCC3)s2)cc1	34.9%[activator]	-11.7%
85	Cc1oc2c(c(C)cc3oc(=O)c(CC(=O)NCc4ccccc4)c(C)c32)c1C	-0.4%	-11.2%
86	COc1ccc(-c2ccc(NS(=O)(=O)c3ccc(OC)c(OC)c3)cc2)nn1	?	?
87	Cc1cc(C)n(-c2nc3cc(Cl)c(Cl)cc3nc2Nc2ccc(F)cc2C)n1	-14.4%	16.0%
88	CCN(CC)CCSc1c(C(C)C)cnc2c1c(=O)n(C)c(=O)n2C	-0.5%	-22.5%
89	O=C(CC(c1cccs1)N1Cc2ccccc2C1=O)Nc1ccccc1F (centres undefined)	-25.0%	-5.9%
90	CC(=O)Nc1ccc(NS(=O)(=O)c2ccc3[nH]c4c(c3c2)CCCCC4)cc1	-35.6%	?
91	COc1cccc(N2C(=O)CSC23C(=O)N(CC(=O)Nc2cc(C)ccc2C)c2ccccc23)c1 (centres undefined)	-13.2%	10.3%
92	Cc1ccc(-c2cc3c(N4CCN(c5cc(C)ccc5C)CC4)nccn3n2)cc1	?	-32.3%
93	CC(=O)N/N=C/c1ccc([N+](=O)[O-])o1	8.9%	/
94	CCOc1ccc(NC(=O)CN2C(=O)C(c3ccccc3)=NC23CCC(C)CC3)cc1 (centres undefined)	?	?
95	Cc1ccc(CCNC(=O)c2c(C)oc3nc(C)nc(N4CCOCC4)c23)cc1	0.3%	33.9%
96	Cc1cccc(C)c1NS(=O)(=O)c1ccc2c(c1)[C@H]1C=CC[C@H]1[C@@H](c1ccc(Cl)cc1)N2	?	?
